KSHV LANA nucl: inhibitors of KSHV LANA-nucleosome binding, primary screen, biochemical, fluorescence polarization, FITC-LANA1-23, chicken nucleosomes | AID 720717, 2013 | actives 0.3% (n = 51,000) | FITC-LANA1-23 / chicken nucleosome fluorescence polarization; active compounds read low | z-score (no concentration beside the values);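 active = both repeat wells score below -2 in polarization z-score versus plate sample wells, excluding overly bright wells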;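 also: 100 nL library stock added to about 30 µL; numbers are from one replicate; some results filed as inactive read as strong as hits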
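Material: Purified chicken nucleosomes with FITC-labelled LANA N-terminal peptide (1-23) | Reagent: 50 nM FITC-LANA1-23 probe | Medium: TEN-BT buffer, pH 7.5 | Times: 10–45 min incubation at room temperature | Detection: Fluorescence polarization | Replication: Duplicates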
BasE inh: BasE siderophore enzyme inhibitors, primary screen, biochemical, Acinetobacter baumannii ATCC 17978, fluorescence polarization; purified BasE, fluorescence polarization binding displacement; inhibition, % (test concentration not listed); actives 0.1% (n = 84,000); AID 485350, 2010;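 active = both replicates above 25% with normal brightness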;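 also: 0% = negative plate control signal and 100% = positive plate control signal; stock transfer was 100 nL into about 30 µL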
The depositor's hits bear a star; / = no result given; & = joins results of further samples. Some of the compounds tested; rates above refer to the full screens.

canonical_smiles | KSHV LANA nucl | BasE inh
CC(C)C(=O)Nc1cccc(-c2nc3ccccc3c(=O)o2)c1 | / | -2.2
COc1ccccc1CC(NC(C)=O)C(=O)N1CCN(C(=O)c2cccs2)CC1 (configuration not stated) | -0.0055 | 3.9
S=C(NCCc1ccccn1)NN1C2CSC1CS2 | 1 | -1.1
N#Cc1cccnc1Oc1ccc(Cl)cc1Cl | 0.61 | -2.8
Cc1cccc(OCC(=O)N2CCc3ccccc32)c1 | -0.73 | 2.5
CC(=Nc1ccc(C)cc1)c1ccc(O)cc1O | 0.38 | 1.0
Cc1ccn2cc(-c3ccccc3)nc2c1 | 0.25 | /
CCN(CC)S(=O)(=O)c1cc(-c2cc(C(=O)N3CCc4ccccc43)no2)ccc1OC | 1.4 | -0.6
Cc1nc(-c2cccc(NC(=O)CN3CCCC3c3cccs3)c2)cs1 (configuration not stated) | / | -0.9
CC(C)CC(=O)Nc1ccc(-c2csc(CC#N)n2)cc1 | / | -7.5
COc1ccc(C(=O)/C=C2\N/C(=N\S(=O)(=O)c3ccc(N)cc3)NC2=O)cc1 | 0.48 | -1.6
C/C=C/NC(=O)c1nc2c(nnn2Cc2ccc(C)cc2)c(=O)[nH]1 | -0.27 | 1.9
CC(C)Cn1c(SCc2ccccc2C#N)nnc1-c1ccccc1F | / | 0.3
O=C1c2ccccc2C(=O)N1N=C1CCCCC1 | -0.27 | 0.7
Cc1cc(NNS(=O)(=O)c2ccc(CCC(=O)O)cc2)n2ncnc2n1 | / | -3.2
COCCn1ccc2nc(SC)ncc2c1=O | 1.3 | -5.4
O=C(O)C(Cc1ccccc1)N1C(=O)/C(=C\c2ccco2)SC1=S (configuration not stated) | -1.2 | 8.1
COC(=O)C(O)(NC(=O)c1ccccc1)C(F)(F)F (configuration not stated) | 0.22 | -1.8
COC(=O)Nc1nc2ccc(C(=O)c3ccc(F)cc3)cc2[nH]1 | -0.34&0.64 | /
CCN1CCO/C1=C\C=C\C1=[N+](CC)CCO1 | 0.16 | -6.7
CS(=O)(=O)N1CCCc2cc(C(=O)Cn3cc(C(F)(F)F)ccc3=O)ccc21 | / | 0.7
CCN(CC)c1ccc(C=Nc2ccc(S(=O)(=O)N3CCCC3)cc2)c(O)c1 | / | -0.2
O=C(c1c(NS(=O)(=O)c2ccc3c(c2)OCCO3)sc2c1CCCC2)N1CCOCC1 | / | -0.6
CC(=O)NCc1ccc(C(=O)CSc2nnc(-c3cccc(C)c3)n2-c2ccc(C)cc2)o1 | / | -0.4
CCC(=O)N1N=C(c2ccccc2)CC1c1ccc(N(C)C)cc1 (configuration not stated) | / | 2.2
CN(C)C(CNC(=O)C(c1ccccc1)c1ccccc1)c1ccco1 (configuration not stated) | / | 0.5
Cc1ccc2nc(CN3CCc4sccc4C3c3cccs3)cn2c1 (configuration not stated) | / | -0.5
COC(=O)c1[nH]c2c(c1C)C(=O)CC(c1ccc(OC)cc1)C2 (configuration not stated) | -0.27 | 1.8
O=C(COc1ccc2ccccc2c1)Nc1ccc2nn(-c3ccccc3)nc2c1 | / | 0.3
CCOC1=CC2=C(CC(C)(C)CC2=O)OC1N(C)C (configuration not stated) | -0.56 | -0.2
C=CCSc1nc2ccccc2n1Cc1cc(C(=O)OC)c(C)o1 | / | -5.8
CS(=O)(=O)N1CCN(S(C)(=O)=O)C2OCCOC21 (configuration not stated) | -0.39 | -0.3
CCOC(=O)N1CCN(C(=O)C2c3ccccc3C(=O)N(c3ccc(OC)cc3)C2c2ccc(OC)cc2)CC1 (configuration not stated) | 0.035 | 3.8
CCCN(CCC)C(=O)c1cc2sc3ccccc3c2s1 | / | 1.6
O=C(CSc1nnc(NC2=NS(=O)(=O)c3ccccc32)s1)N1CCOCC1 | 1.1 | 2.4
CC(C)C(NS(=O)(=O)c1ccc2c(c1)CCCC(=O)N2)C(=O)NC1CCCC1 (configuration not stated) | / | 2.1
Cc1cc(NC(=O)CN2CCN(S(=O)(=O)c3ccc(Cl)cc3)CC2)no1 | / | 2.7
Cc1cc2nc(C)c(CCC(=O)N3CCN(Cc4ccc(C(C)C)cc4)CC3)c(C)n2n1 | / | 1.5
NCCCC(=O)OC1CCCCC1 | -0.49 | 1.8
CN=c1scc(C)n1/N=C/c1ccco1 | / | -0.2
CSc1cc(C(F)(F)F)nc(-c2ccccn2)n1 | -0.86 | /
CCCCn1c(C)csc1=Nc1ccccc1 | -2.1 | 1.1
CCC(CO)NC(=S)Nc1c(Cl)cccc1Cl (configuration not stated) | 0.61 | 1.6
O=C(NC1CCCCC1)N1CC=C(c2ccccc2)CC1 | 2.7 | 0.1
O=C(CCc1ccccc1)Nc1ccccc1 | 0.45 | 1.2
CC(=O)Nc1ccccc1C(=O)N(Cc1ccccc1)Cc1ccccc1 | / | -1.1
O=C(N1CCSCC1)C12CC3CC(CC(C3)C1)C2 | 0.62 | /
Cc1ccc(NC(=O)COC(=O)CC2CCCC2)cc1F | / | -1.4
Cc1ccc(S(=O)(=O)N2CCCC2C(=O)O)cc1 (configuration not stated) | / | -2.2
CCOC(=O)c1sc2cccc(F)c2c1CSc1nnc(SCc2ccc(C(=O)OC)o2)s1 | / | 2.3
Cc1cccc(NC(=O)CSc2nc3cc(S(=O)(=O)N(C)C)ccc3o2)c1 | / | -2.7
O=C(O)CCS(=O)(=O)Cc1ccccc1 | -0.47 | -0.3
C=CCN(c1ccccc1OC)S(=O)(=O)c1cccc(C(=O)OC)c1 | / | -0.5
COc1cc2c(cc1NC(=O)CSCC(=O)O)oc1ccccc12 | / | 3.8
CC(=O)Nc1ccc2oc3ccccc3c2c1 | / | 1.9
O=C1c2ccccc2C(Nc2ccc(Cl)cc2)N1Cc1ccco1 (configuration not stated) | 1.8 | -3.3
CCOC(=O)c1c2nc3ccccc3nc2n2c1[nH]c(=O)c1c3c(sc12)CCCC3 | / | 0.8
CCN(CC)C(=O)Cc1c(C(=O)O)[nH]c2ccc(Cl)cc12 | 0.22 | 1.3
C=CCNC(=O)C(C)Sc1ccc(Cl)cc1 (configuration not stated) | -0.63 | -1.8
CCOc1ncccc1C(=O)Nc1c(C)cc(C)cc1Cl | / | 0.8

Following part
canonical_smiles | KSHV LANA nucl | BasE inh
O=C(NCCc1ccc(Cl)cc1)C1CCN(S(=O)(=O)c2ccc3c(c2)OCCO3)CC1 | / | 1.0
CCCn1c(-c2cccs2)n[nH]c1=O | / | 4.2
Fc1ccc(/C=N/N2CCOCC2)cc1 | / | -0.5
CS(=O)(=NS(=O)(=O)c1cccc2nonc12)c1ccccc1 (configuration not stated) | -1.2 | 1.9
O=C1c2ccccc2C(=O)N1c1ccccc1S(=O)C(F)(F)F (configuration not stated) | -0.15 | 2.1
OCc1cccn1-c1ncc(C(F)(F)F)cc1Cl | 0.68 | /
O=C(CSc1nnc(-c2ccco2)n1CC1CCCO1)c1ccccc1 (configuration not stated) | -0.26 | 0.4
CCc1ccccc1Oc1ncccn1 | / | 1.3
COc1cc(NC(=O)CCC2CCCC2)c(C(=O)N2CCN(C(C)=O)CC2)cc1OC | / | -0.6
CCOC(=O)c1ccc2c(c1)nc(COc1ccc(OC)cc1)n2CC | / | -3.2
CC(C)C1OCC2Cc3ccccc3C2O1 (configuration not stated) | -1.4 | 1.4
COCc1cc(C)nc(Oc2ccccc2)c1C#N | 0.076 | -1.5
CCCCNC(=O)c1cn(CC)c2ccc(S(=O)(=O)N3CCCCCC3)cc2c1=O | -0.74 | -12
CC(C)(S)C(N)C(=O)O (configuration not stated) | 0.056 | 1.1
CCN1/C(=C\C(=S)Nc2ccccc2)Sc2ccccc21 | / | 0.9
CC(=Nc1ccccc1)C1=C(O)CCCC1=O | / | 1.2
FC(F)(F)c1cc(-c2ccco2)nc(-n2nc(C(F)(F)F)cc2C2CC2)n1 | -0.9 | 2.5
Cn1c(=O)cc(N2CCOCC2)c2c(=O)n(-c3ccccc3)c(=O)n(-c3ccccc3)c21 | / | 0.4
Cc1n[nH]c(=O)c2cc3ccccc3n12 | 0.28 | -1.1
COc1ccc(CNC(=O)C(C)C)cc1 | -0.74 | 0.1
C/C(=N\NC(=O)C(C)C)c1cc(C)c(C)cc1C | / | 1.7
CC(=O)Nc1ccc(S(=O)(=O)N[C@@H](C)C(=O)N(C)Cc2cccs2)cc1 | / | -0.5
O=C(COc1ccccc1C(=O)N1CCN(c2ccccc2O)CC1)Nc1ccc(Br)cc1 | / | -1.3
CC1CCC(C(C)C)C(OC(=O)COC(=O)c2ccc(Br)o2)C1 (configuration not stated) | / | 1.7
Cc1cc(C)cc(NS(=O)(=O)N(C)C)c1 | 0.63 | -1.7
CCOc1ccccc1N1C(=O)CC(N(O)c2ccccc2)C1=O (configuration not stated) | / | -1.4
CCCCC/C=C\C[C@@H](O)/C=C/C=C/C=C\[C@@H](O)CCCC(=O)O | -0.42 | -0.1
CCOc1ccc(-n2c(=O)c(C#N)cc3c(=O)n4ccccc4nc32)cc1 | -0.76 | 0.8
CCCCC[C@H](O)/C=C/[C@H]1[C@H](O)CC(=O)[C@@H]1C/C=C\CCCC(=O)O | -0.18&-0.38 | -2.3
ONC=Nc1ccc2nnc(-c3ccccc3)n2n1 | / | 1.4
N#CC1=C(N)Oc2ccccc2C12C(=O)Nc1cc(N)ccc12 (configuration not stated) | -1.6 | 1.9
CCCCNC1=NCCS1 | / | -0.8
COc1ccc(OCC2CCCNC2)cc1 (configuration not stated) | 0.27 | -2.3
Cc1nn(-c2ccc(F)cc2)c(Cl)c1/C=N/N=C1\C(=O)Nc2ccccc21 | / | 3.8
CCCCC[C@H](O)/C=C/[C@@H]1[C@H]2C/C(=C/CCCC(=O)O)C[C@H]2C[C@H]1O | 0.43 | 0.3
CC1(C)S[C@@H]2[C@H](NC(=O)COc3ccccc3)C(=O)N2C1C(=O)O (some centres not stated) (tested in a mixture with another compound) | -0.048 | -1.1
CCNC(=O)N(CC)Cc1nc(-c2ccc(Cl)cc2)no1 | 0.096 | -1.5
COc1ccc(/C=C2\N=C(c3ccccc3)NNC2=O)cc1 | -0.23 | 4.3
Cc1noc(-c2ccc(OCc3cnn(-c4ccccc4)c3)cc2O)c1Oc1ccc(F)cc1 | 2.5 | -5.2
Cc1cc(C(=O)CSc2nc3ccccc3s2)c(C)n1C | / | -0.5
CC[n+]1ccc(C)c2cc(S(=O)C(F)(F)F)ccc21 (configuration not stated) | 0.09 | -1.6
CN(C)c1ccc(/C=C2\SC(=O)N(CCC(=O)Nc3ccccc3)C2=O)cc1 | -2.9 | 38
O=C(O)COc1ccc(CS(=O)(=O)Cc2ccc(OCC(=O)O)cc2)cc1 | 0.14 | 0.1
Cc1ccn2c(N)c(-c3ccccc3)nc2c1 | / | 0.8
CC(=O)Nc1c(O)[nH]c2ccc(C)cc12 | / | -3.5
O=C(Cn1nc(C(=O)O)c2ccccc2c1=O)c1c[nH]c2ccccc12 | / | 0.2
COc1ccc(S(=O)(=O)N(CCC(=O)O)Cc2ccccc2)cc1 | / | 2.0
O=C(O)c1ccccc1C(=O)N1CCC(C(=O)c2ccccc2)CC1 | -0.54 | 1.3
N#Cc1ccc(CSC2=Nc3ccccc3CS2)cc1 | / | -0.3
CCOCC(=O)Nc1cccc(NC(C)=O)c1 | -0.33 | 6.1
CN(Cc1ccccc1Cl)C(=O)CNC(=O)c1ccco1 | / | -0.5
O=C(NCCS(=O)(=O)N1CCN(c2ccccc2)CC1)c1ccccc1 | 0.71 | 0.3
CC/C(=N\c1ccnn1C1CCCCC1)c1c(O)n(CCOC)c(=S)[nH]c1=O | / | -0.8
Brc1cc2c(cc1CSc1ncccn1)OCCO2 | / | 1.4
CCNC(=O)c1ccc(Cn2nc(-n3cccc3)c3c(C)cc(C)nc32)cc1 | 1.3 | 0.4
COc1cccc(NC(=O)C23CCC(C)(C(=O)C2)C3(C)C)c1 (configuration not stated) | 0.38 | -2.4
COc1ccccc1-n1nnc(C(=O)N2CCCC2)c1N | 2.1 | -4.9
Cc1cc(/C=C2\SC(N)=NC2=O)c(C)n1C1CC1 | / | 0.4
O=S(=O)(NNc1ccccn1)c1cccc(Cl)c1Cl | / | 0.5
O=C1CCCc2cc(S(=O)(=O)N3CCCC3C(=O)N3CCc4ccccc43)ccc2N1 (configuration not stated) | / | 0.0
c1ccc(-c2ncc(CSc3nnc(-c4cccs4)n3CC3CCCO3)s2)cc1 (configuration not stated) | / | -0.5

In the list so far, these contain a cyano group.
canonical_smiles | KSHV LANA nucl | BasE inh
N#Cc1cccnc1Oc1ccc(Cl)cc1Cl | 0.61 | -2.8
CC(C)CC(=O)Nc1ccc(-c2csc(CC#N)n2)cc1 | / | -7.5
CC(C)Cn1c(SCc2ccccc2C#N)nnc1-c1ccccc1F | / | 0.3
COCc1cc(C)nc(Oc2ccccc2)c1C#N | 0.076 | -1.5
CCOc1ccc(-n2c(=O)c(C#N)cc3c(=O)n4ccccc4nc32)cc1 | -0.76 | 0.8
N#CC1=C(N)Oc2ccccc2C12C(=O)Nc1cc(N)ccc12 (configuration not stated) | -1.6 | 1.9
N#Cc1ccc(CSC2=Nc3ccccc3CS2)cc1 | / | -0.3

Retrieved one by one from the entries so far (two):
canonical_smiles | KSHV LANA nucl | BasE inh
CC[n+]1ccc(C)c2cc(S(=O)C(F)(F)F)ccc21 (configuration not stated) | 0.09 | -1.6
O=C(NCCS(=O)(=O)N1CCN(c2ccccc2)CC1)c1ccccc1 | 0.71 | 0.3
